# From PubChem BioAssay
# Ba CapD inh: blocks the Bacillus anthracis CapD enzyme. purified CapD enzyme, fluorescence intensity read-out; hits give low values; some hits fall short of the stated cut. z-score (test concentration not listed). hit rate 0.23% among 140,000. AID 492967;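 active = z-score under -4 in either of two replicates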;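 also: stock transfer was 100 nL into about 40 µL; score is relative to mean and spread of the plate; one replicate is shown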
# AID504770: E. coli YBA685 growth inhibition, screen for V. cholerae RctB inhibitors; E. coli YBA685 rctB-dependent plasmid, OD600 growth, 3 h; hits give low values; z-score (test concentration not listed); hit rate 0.27% among 130,000;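 active = z-score under -2 on both plates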;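 also: wells of about 30 µL received 100 nL stock; score is relative to mean and SD of the test wells; the first replicate is given; strong numbers were not always called active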
# An asterisk follows results filed as active; . = no result given; & = joins results of further samples.
SMILES,Ba CapD inh,AID504770
O=C(/C=C/c1ccco1)Nc1ccc2c(c1)C(=O)N(c1ccccc1)C2=O,0.36,-0.65
CCOc1ccccc1CNC(C)(C)CO,0.18,-0.5
O=C(NCCc1cn2c(n1)SCC2)c1ccc(-c2ccccc2)cc1,.,1.8
O=C(CNC(=O)NC1CCCCC1)NC1CC1,.,-0.05
O=S(=O)(Cc1ccccc1)Nc1ccc(S(=O)(=O)N2CCCCC2)cc1,.,-0.9
N#Cc1ccc(-c2ccc(F)cc2F)o1,0.64,-0.6
NC(=O)c1cnn2c(C(F)(F)F)cc(-c3ccc(F)cc3)nc12,1.7,-1.2
Cc1cc(COC(=O)c2cn(C)c3ccccc23)no1,.,-1.5
Cn1c(C(=O)N2CCCC(C(=O)O)C2)cc2sccc21 (stereo not given),-0.24,0.15
O=C(NCc1csc2ccccc12)OCCN1CCN(Cc2ccccc2OCc2ccccc2)CC1,0.055,.
CCC1CCCCN1C(=O)CSc1nc2c(cnn2-c2ccc(Cl)cc2)c(=O)[nH]1 (stereo not given),-0.28,-0.9
CCN(C(=O)CSCc1ccco1)C1CCCCC1,0.17,0.75
CCC1CCCCN1C(=O)Nc1ccccc1 (stereo not given),-0.21,-0.4
Cc1nn(-c2ccccc2Cl)c(Cl)c1/C=N/N=c1\sc2ccccc2n1C,.,-0.25
Cc1cc(NC(=O)COc2ccc(Cl)cc2Cl)n(CCC#N)n1,0.33,0.6
O=C(Cn1ccn(-c2ccccc2)c(=O)c1=O)NCCc1ccccc1,-0.35,-0.55
COc1ccc(/C=N/NC(=O)c2cnn(-c3ccc([N+](=O)[O-])cc3)c2C(F)(F)F)cc1,-0.15,.
CCOC(=O)c1sc(N)c(C(=O)OCC)c1CNC(C)(C)C,.,-0.25
C/C(=N\OCC(=O)N1c2ccccc2CC1C)c1cc2ccccc2o1 (stereo not given),.,1.6
O=C(O)CCC(=O)c1ccc2c(c1)OCCCO2,0.87,0.15
CC(C)(C)C1CCC(OC(=O)CCC(=O)O)CC1 (stereo not given),0.38,0.15
Nc1nnc(SCc2nc3scc(-c4ccc(Cl)cc4)c3c(=O)[nH]2)s1,.,0.75
CN(Cc1ccccc1)C(=O)COC(=O)c1cnc(Cl)c(Cl)c1,-0.55,-0.25
CN(C)/C=C(\C(=S)c1ccccc1)c1ccccc1,-0.91,1.1
CCC1CCCCN1C(=O)Cn1c(C(=O)OC)cc2sc(Cl)cc21 (stereo not given),-0.52,0.15
CCCS(=O)(=O)N1CCN(S(=O)(=O)CCC)CC1,.,1.2
O=C(NCCc1ccco1)c1cn(-c2ccc(F)cc2)nn1,-0.14,0.8
COc1ccc(-c2cc(C(=O)N3CCCCC3)no2)cc1,-1.4,0
Cc1c(C)n(CC(O)CN2CCN(CCO)CC2)c2ccccc12 (stereo not given),0.92,0.4
O=C(Cn1c(=O)c2cccn2c2ccc(F)cc21)N1CCN(C(=O)c2ccco2)CC1,4.9,1.9
Cc1ccc2[nH]c3c(c2c1)CCCC3N1CCc2ccccc21 (stereo not given),0.24,0.35
COc1ccc(C(=O)N=C2NC(=O)C(C)S2)cc1 (stereo not given),-0.21,1.8
Cc1cc(N2CCC(C(=O)N3CCOCC3)CC2)n2nc(C)c(-c3ccc(Cl)cc3)c2n1,0.63,-0.4
CC1(C)Oc2ccc3ccc(=O)oc3c2/C(=C/NC23CN4CN(CN(C4)C2)C3)C1=O,0.01,-0.2
O=S(=O)(c1ccccc1)N1CN(c2cccc(C(F)(F)F)c2)c2nc3ccccc3nc21,.,0.85
COc1ccc(-c2cc(C(F)(F)F)n3nc(C(=O)NCc4ccc5c(c4)OCO5)cc3n2)cc1OC,-0.095,.
O=c1[nH]c2ccccc2nc1-c1ccc(Cl)cc1,0.51,-0.3
COc1cccc(Cc2nnc(-c3c(-c4ccccc4)noc3C)o2)c1,0.32,-0.1
COc1ccc(C2=NN3C(C2)c2cc(Cl)ccc2OC3c2ccc(SC)cc2)cc1 (stereo not given),1.8,.
CCc1nnc(NC(=O)/C=C/c2cccs2)s1,.,0.35
CCNc1nc(NCC)nc(NNC(=S)Nc2ccc(OCC)cc2)n1,.,-1.1
CC1=C(C(=O)OCCOc2ccccc2)C(c2cccc(O)c2)C2=C(CC(c3ccccc3)CC2=O)N1 (stereo not given),17,.
CN1C(=O)c2cccc3cccc(c23)[S+]1c1ccccc1C(=O)O (stereo not given),-0.28&-0.56,-0.85&-0.65
CC(C)=CC(=O)Nc1sc2c(c1C#N)CCCC2,1.4,-0.3
Cc1cc(C)c(CCOC(=O)NNC(=O)c2cc(C(C)(C)C)[nH]n2)c(C)c1,-0.52,.

# A second format for some results above:
Structure	Ba CapD inh	AID504770
Cc1c(C)n(CC(O)CN2CCN(CCO)CC2)c2ccccc12 (stereo not given)	0.92	0.4
O=C(Cn1c(=O)c2cccn2c2ccc(F)cc21)N1CCN(C(=O)c2ccco2)CC1	4.9	1.9
Cc1ccc2[nH]c3c(c2c1)CCCC3N1CCc2ccccc21 (stereo not given)	0.24	0.35
COc1ccc(C(=O)N=C2NC(=O)C(C)S2)cc1 (stereo not given)	-0.21	1.8
Cc1cc(N2CCC(C(=O)N3CCOCC3)CC2)n2nc(C)c(-c3ccc(Cl)cc3)c2n1	0.63	-0.4
CC1(C)Oc2ccc3ccc(=O)oc3c2/C(=C/NC23CN4CN(CN(C4)C2)C3)C1=O	0.01	-0.2
O=S(=O)(c1ccccc1)N1CN(c2cccc(C(F)(F)F)c2)c2nc3ccccc3nc21	.	0.85
COc1ccc(-c2cc(C(F)(F)F)n3nc(C(=O)NCc4ccc5c(c4)OCO5)cc3n2)cc1OC	-0.095	.
O=c1[nH]c2ccccc2nc1-c1ccc(Cl)cc1	0.51	-0.3
COc1cccc(Cc2nnc(-c3c(-c4ccccc4)noc3C)o2)c1	0.32	-0.1
COc1ccc(C2=NN3C(C2)c2cc(Cl)ccc2OC3c2ccc(SC)cc2)cc1 (stereo not given)	1.8	.
CCc1nnc(NC(=O)/C=C/c2cccs2)s1	.	0.35
CCNc1nc(NCC)nc(NNC(=S)Nc2ccc(OCC)cc2)n1	.	-1.1
CC1=C(C(=O)OCCOc2ccccc2)C(c2cccc(O)c2)C2=C(CC(c3ccccc3)CC2=O)N1 (stereo not given)	17	.
CN1C(=O)c2cccc3cccc(c23)[S+]1c1ccccc1C(=O)O (stereo not given)	-0.28&-0.56	-0.85&-0.65
CC(C)=CC(=O)Nc1sc2c(c1C#N)CCCC2	1.4	-0.3
Cc1cc(C)c(CCOC(=O)NNC(=O)c2cc(C(C)(C)C)[nH]n2)c(C)c1	-0.52	.

# New compounds follow
SMILES,Ba CapD inh,AID504770
CN(C)C(CNC(=O)c1n[nH]c2ccccc12)c1cccs1 (stereo not given),.,-0.8
Cc1cc(C)n(C(C)CC(=O)N2CCN(c3ccc(F)cc3)CC2)n1 (stereo not given),0.46,1.9
Cn1c(Cc2cccs2)nnc1SCc1cc(=O)n2ccsc2n1,.,0.6
CCOC(=O)N1CCN(C(=O)c2ccc3c(=O)n(Cc4ccccc4Cl)c(=S)[nH]c3c2)CC1,-0.69,.
Cc1ccc(Cn2c(=O)n(Cc3ccccc3)c(=O)c3cccnc32)c(C)c1,0.16,-0.25
Cc1nc(S(=O)(=O)N2CCN(C3c4ccccc4-c4ccccc43)CC2)cn1C,-0.01,0.55
Nc1nnc(SCC(=O)OCC(=O)N2CCCCC2)s1,.,0.45
Cc1cc(C)cc(N(CC(=O)O)S(=O)(=O)c2c(C)n[nH]c2C)c1,-1.2,-0.2
CN(C)CCOC(=O)C1(c2ccccc2)CCCC1,0.54,0.6
CCOc1ccccc1CN1CCC(N2CCCCC2)CC1,0.09,-1.1
COC(=O)c1ccc(OC(=O)CCN2C(=O)c3ccccc3C2=O)cc1,0.29,0.35
CCc1ccc(NC(=O)CNc2ccc(C#N)cc2)cc1,.,1.4
CCn1c(N)c(C(=O)NC2CCCC2)sc1=S,-1.4,0.1
Cc1nc(Nc2ccccc2)sc1C(=O)Nc1ccccc1,.,0
CCOC(=O)c1ccc(N2C(=S)N=C(Nc3cccc(C)c3)C23CCCCC3)cc1,-0.42,.
CCOC(=O)c1c(-c2ccccc2)oc2ccc(OCc3c(F)cccc3Cl)cc12,11,.
COC(=O)c1sc(C(=O)OC)c2c1OCCO2,18,-0.25
N#C/C(C(=O)c1ccccc1)=C1/SC=C(N)N1c1ccccc1,-1,0.2
CC(C)CC1(c2ccccc2)NC(=O)NC1=O (stereo not given),.,-0.9
CN1C(=O)S/C(=C\c2ccccc2Br)C1=O,0.5,0.75
S=C(NNc1ccccc1)Nc1ccccc1,.,0.45
Cc1c(Cl)cccc1SCC(=O)O,0.37,.
CCn1c(=O)cc(OCC(=O)Nc2cccc(OC)c2)c2ccccc21,58,0.25
COc1cc(C(=O)n2c(SCc3ccc(F)cc3)nc3ccccc32)cc(OC)c1OC,-0.64,2.5
CC(=O)Nc1ccc(SCC(=O)NC2(C#N)CCCCC2)cc1,.,-0.1
O=C(O)c1cncc(C#Cc2ccccc2)c1,-0.075,.
CO[C@@H]1[C@@H](O[C@@H]2O[C@H](C)[C@@H](O[C@H]3C[C@@](C)(O)[C@H](O)[C@H](C)O3)[C@H](N(C)C)[C@H]2O)[C@@H](CC=O)C[C@@H](C)[C@@H](O[C@H]2CC[C@H](N(C)C)[C@@H](C)O2)/C=C/C=C/C[C@H](C)OC(=O)C[C@H]1O,1.2,0.3
Cc1ccc2cc(C3CC(c4ccco4)=NN3S(C)(=O)=O)c(=O)[nH]c2c1 (stereo not given),6.2,-0.05
COc1ccccc1CN1CCN(Cc2ccccc2)CC1,-0.18,-0.45
COc1ccccc1-c1cc(NC(=NCC2CCCO2)SC)n[nH]1 (stereo not given),-0.46,-0.3
COc1cccc(N2CCN(C(=O)C3=NNC(=O)CC3)CC2)c1,.,-0.5
CCOc1ccc(NC(=O)c2sc3nc4c(c(-c5ccco5)c3c2N)CCCC4)cc1,-0.79,.
CCOc1ccccc1OC(=O)C(C)(C)C,-0.31,1.3
O=C(COC(=O)c1ccccc1O)c1cccs1,-0.39,-0.2
CCOC(=O)c1sc(NC(=O)Cn2cnc3ccccc3c2=O)nc1C,-0.52,.
O=C1NCCN=C1c1cc(Cl)sc1Cl,.,-0.3
COc1ccc(Nc2cc(-c3ccccc3)nc3nncn23)cc1OC,1.5,0.25
Cc1ccc(-c2ccccc2)n1-c1cccnc1,-0.32,2.2
COc1ccc(C2NC(c3ccc(OC)cc3)C(C)C(=O)C2C)cc1 (stereo not given),-0.19,-0.3
CCSc1nnc(NC(=O)c2cccc(S(=O)(=O)N3CC(C)CC(C)C3)c2)s1 (stereo not given),.,-0.95
COC(=O)/C(C#N)=C/N(C)C,0.39,-0.15
COc1ccccc1NC(=O)CON,0.15,-0.85
CCOC(=O)C1=NN(c2cccc(Cl)c2)C2(S1)c1ccccc1C(c1ccc(Br)cc1)=NN2c1ccccc1 (stereo not given),0.32,.
O=C(NN1CC(C(=O)OCc2ccccc2F)CC1=O)c1ccccc1 (stereo not given),0.01,-0.65
O=C(Nc1ccncc1)c1cc2cccc3c2n(c1=O)CCC3,0.3,.
COc1cc(C(=O)OCCn2c(=O)c3c(nc(N4CCNCC4)n3C)n(C)c2=O)cc(OC)c1OC,0.045,.
COc1cc2c(cc1OC)C(C)N(C(=O)CC(C)(C)CC(=O)O)CC2 (stereo not given),1.9,-1.3
c1ccc(Nc2ncnc3ccccc23)cc1,-0.16,-0.75
CC(=O)Nc1cccc(Oc2ccc3c(c2)C(=O)N(c2ccc(Oc4ccc(C)c(C)c4)cc2)C3=O)c1,0.3,-0.2
CN1CCC(N(C(=O)c2ccc(C(F)(F)F)nc2)C2CC2)CC1,-0.67,.
Cc1ccc(Nc2nc(N)nc(CN3CCCCCC3)n2)c(C)c1,-1,2.4
CC(NC(=O)CCc1cccs1)c1ccc(-n2ccnc2)cc1 (stereo not given),.,0.7
FC(F)(F)c1ccc(-c2[nH]ncc2-c2ccc3ccccc3n2)cc1,10,.
CCOC(=O)C1C(c2ccc([N+](=O)[O-])cc2)NC(=S)NC1(C)O (stereo not given),-0.31,.
COc1ccc(Nc2cc(=O)oc3ccccc23)cc1,.,2.1
N#Cc1ccccc1OCC(=O)c1ccc2c(c1)OCCO2,.,0.05
O=C1/C(=C\c2cccs2)SC(=S)N1CCCC(=O)N1CCCc2ccccc21,-1.3,-0.85
CCOC(=O)N1CCC(N2C(=O)c3ccccc3C2Nc2ccc(CC)cc2)CC1 (stereo not given),-1.2,0.05
COc1ccc2cc3cc(C(=O)NCc4cccs4)sc3nc2c1,0.11,0.05
COc1ccccc1/C=C1/C(=O)ON=C1C,0.06,-2.8*

# The listing continues.
SMILES,Ba CapD inh,AID504770
CCSc1nnc2n(CC)c3ccccc3n12,0.2,-1.7
Cc1ccc(Nc2ncnc3ccccc23)cc1,.,0.85
CC(COC(=O)NNC(=O)CSCc1nc(-c2ccccc2)cs1)c1ccccc1 (stereo not given),-0.29,.
CN=C(C)/C(C(=O)OC)=C(\O)c1cccs1,-1.5,2
O=S(=O)(c1cccs1)N1CCN(Cn2c(NCCO)nc3ccccc32)CC1,.,-0.2
Cc1sc2ncnc(SC3CCOC3=O)c2c1C (stereo not given),.,-0.35
Cc1ccc(N2C(=O)/C(=C/c3ccc(OCC(=O)O)c(Br)c3)C(=O)NC2=S)cc1,-1.3,.
O=C(NC1CCCC1)c1sc(=S)n2c1[nH]c(=O)c1ccccc12,-0.93,-0.55
Clc1ccc(-c2cn3nc(-c4ccccc4)c(-c4ccccc4)nc3n2)c(Cl)c1,21,.
Cc1oc(-c2ccc(C(=O)O)cc2)nc1CSc1ccc(Cl)cc1,1.5,-0.8
CC(=O)Nc1cccc(-c2nc3ccccc3[nH]2)c1,20,-0.85
Cc1ccc(Cn2ccsc2=NC(=O)COC(=O)C2CC2)cc1,.,-0.1
COc1ccc2[nH]cc(CCNS(=O)(=O)c3cccc(C)c3)c2c1,0.82,.
Cc1ccc(Nc2nc3nonc3nc2Nc2ccccc2OC(=O)c2ccccc2)cc1C,-0.72,.
NC(=O)c1nnn(Cc2ccc(Cl)cc2)c1N,-1.1,-1
CC1(C)CC(=O)C2=C(C1)c1c(ccc3ccccc13)NC2c1ccc(OCc2c(F)cccc2Cl)cc1 (stereo not given),5.2,.
O=C(NCc1cccs1)c1ccccc1,0.19,.
